Screening data from PubChem BioAssay.
Ba CapD inh: Bacillus anthracis CapD inhibitors, primary screen, biochemical, fluorescence intensity; purified CapD enzyme, fluorescence intensity read-out; hits give low values; some hits fall short of the stated cut; z-score (no concentration beside the values); hit rate 0.23% among 140,000; AID 492967, 2010;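 active means z-score under -4 in either of two replicates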;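 further: stock transfer was 100 nL into about 40 µL; score is relative to mean and spread of the plate; one replicate is shown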
AID504770: growth inhibition of E. coli YBA685, primary screen, V. cholerae RctB inhibitors; E. coli YBA685 rctB-dependent plasmid, OD600 growth, 3 h; hits give low values; z-score (concentration not given with the values); hit rate 0.27% among 130,000; AID 504770, 2011;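 active means z-score under -2 on both plates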;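 further: wells of about 30 µL received 100 nL stock; score is relative to mean and SD of the test wells; the first replicate is given; strong numbers were not always called active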
Numbers without * were called inactive; . = not tested or not shown.

SMILES	Ba CapD inh	AID504770
C/C(N)=C(/C#N)C(=O)Cn1nc(C(=O)O)c2ccccc2c1=O	.	-0.35
O=C1/C(=C\c2c(N3CCN(CCO)CC3)nc3ccccn3c2=O)SC(=S)N1CC1CCCO1 (configuration not stated)	-0.17	.
CCc1ccc(CN2CCC(N3CCCCC3)CC2)cc1	-0.035	2
COC(=O)c1ccccc1NC(=O)N1CCCc2cc(C)ccc21	0.01	-0.85
O=C1OC(c2ccccc2)OC(=O)C1=C/C=C/c1ccccc1 (configuration not stated)	-0.49	-0.65
CC(C)(C)OC(=O)N1CCC[C@H]1C(=O)OCc1ccc(Cl)cc1Cl	.	-0.3
NCC(O)CC(=O)O (configuration not stated)	0.095	0.6
CC(=O)Nc1ccc(/C=N/OCC(=O)Nc2ccc(C)cc2)cc1	.	-0.35
COc1ccnc(C(=O)O)c1	.	-1.6
Cc1ccc(CN2C(=O)CCC2C(=O)NC(C)C)cc1 (configuration not stated)	0.55	-0.1
Cc1nc2sc(C(c3ccc(F)cc3)N3CCN(C)CC3)c(O)n2n1 (configuration not stated)	-0.8	-1.2
O=C(c1c(F)cccc1F)N1CCSCC1	0.31	1.6
Cc1cc(C(=O)CSc2nc3ccc(Cl)cc3[nH]2)c(C)n1Cc1ccco1	.	0.4
COc1ccc(N2CC(NC(=O)Nc3ccc(S(=O)(=O)NC(C)=O)cc3)CC2=O)cc1 (configuration not stated)	.	0.55
COc1cccc(NC(=O)CNC(=O)Cn2cnc3sc4c(c3c2=O)CCCC4)c1	0.26	1.8
O=C(COC(=O)C1CCC(=O)N1)Nc1ccc(Cl)cc1Cl (configuration not stated)	0.29	-0.95
CC(=O)NS(=O)(=O)c1ccc(NC(=O)Cn2cnc3c2c(=O)n(C)c(=O)n3C)cc1	0.82	-0.05
O=C(CN1C(=O)NC(Cc2c[nH]c3ccccc23)C1=O)c1ccc(F)cc1 (configuration not stated)	.	-1
COc1ccc(C(Cc2ccncn2)Oc2nc(OC)cc(OC)n2)cc1 (configuration not stated)	-0.48	.
C/C(=N\NC(N)=S)C1CC2CCC1C2 (configuration not stated)	.	1
CCOc1ccc(-c2nnc(NC(=O)Nc3ccccc3)o2)cc1	.	-0.6
S=C(NCc1ccccn1)Nc1ccccc1	-0.76	.
CC1(C)CC(=O)C2=C(C1)OC(N)=C(C#N)C2c1ccc(OC(=O)N2CCOCC2)cc1 (configuration not stated)	0.38	.
COC(CNC1CCCc2c1[nH]c1ccc(C)cc21)OC (configuration not stated)	0.52	-0.4
O/N=C/c1cccn1-c1ncc(C(F)(F)F)cc1Cl	-0.37	0.35
Clc1nc(N/N=C/c2ccc(Br)cc2)c2ccccc2n1	8.5	.
COC(=O)/C(C#N)=C/c1ccc(C)o1	-1.4	-0.35
Cc1cc(C)c(C)c(S(=O)(=O)NCc2cccc(F)c2)c1C	-0.41	.
COc1ccc(CNn2cnnc2SCc2ccc(F)cc2)cc1OC	.	-0.5
O=C(OC/C=C/COCc1ccccc1)N1CCN(c2ccc([N+](=O)[O-])cc2)CC1	-0.73	.
Cc1ccc(COc2c(-c3ccccc3)c(=O)n3c4c(cc(C)cc24)CCC3)cc1	18	.
O=C(Nc1ccccc1Sc1c(Cl)cncc1Cl)c1cccs1	-0.32	-0.5
Cc1ccc(CN2CCN(CC(=O)NCc3ccc4c(c3)OCO4)C2=O)cc1	0.07	0.5
CN(C)CCCNC(=O)c1cc(Br)ccc1O	48	-0.35
CC(C)=CCCC(C)CC(=O)NNC(=O)c1cc(C)[nH]n1 (configuration not stated)	-0.51	.
Cc1ccccc1NC(=O)c1cc2cccc3c2n1CC(C)S3 (configuration not stated)	3.8	-1.6
NC(=O)c1ccccc1NC(=O)Cc1c(F)cccc1Cl	0.18	-0.9
Cc1cccc(N2CCN(CC(=O)NCC(F)(F)F)CC2C)c1 (configuration not stated)	.	0.05
c1cc(CN2CCCCC2)n(-c2nnc(N3CCCCCC3)s2)c1	-0.38	-0.25
Cc1oc(-c2ccccc2)nc1C(=O)OCc1cc(=O)oc2cc3c(cc12)CCC3	.	-1.1
c1ccc(-n2nnnc2Oc2ccc(-n3ccnc3)cc2)cc1	.	-0.15
O=C(OCc1cc(F)cc2c1OC(c1ccccc1)OC2)c1ccco1 (configuration not stated)	.	0.15
O=C(CCCCl)NCc1cccnc1	-0.35	0.2
CC12CCC3c4ccc(Oc5ccc([N+](=O)[O-])cc5)cc4CCC3C1CCC2O (configuration not stated)	-0.64	.
COc1ccc(OC)c(C2Oc3ccc(Cl)cc3C3CC(c4cccs4)=NN32)c1 (configuration not stated)	1.5	.
O=C1c2ccccc2C(=O)N1c1ccc(S(=O)(=O)Nc2ccc(F)cc2)cc1	-0.54	0.3
Cc1ccc(Nc2ccnc3cc(Cl)ccc23)cc1F	1.7	-0.35
Cn1cccc1Cc1nnc(SCC(=O)Nc2ccccc2C(F)(F)F)n1-c1ccc(F)cc1	-2.1	2.5
O=C(NCCn1cnc2cccnc21)N(c1ccccc1)c1ccccc1	.	1
O=c1[nH]c2ccccc2n1CN1CCOCC1	.	0.05

The listing continues.
SMILES	Ba CapD inh	AID504770
O=C(CN1CCN(c2ccc(C(F)(F)F)cn2)CC1)NC1CCCc2ccccc21 (configuration not stated)	.	-0.75
CCCCn1c(-c2cccs2)nc2ccccc21	66	-0.9
COc1cccc(C2C(C(=O)c3ccccc3)=C(C)Nc3nc4ccccc4n32)c1 (configuration not stated)	-0.21	0.2
Cc1ccc(C(c2c(O)[nH]c(=S)[nH]c2=O)N2CCCCC2)cc1 (configuration not stated)	-1.1	1.6
COc1ccc(OC)c(NC(=O)c2cc3cccc4c3n2CC(C)S4)c1 (configuration not stated)	2.3	-0.4
COc1ccc(S(=O)(=O)N(CCC(=O)O)Cc2ccco2)cc1OC	-0.94	-1.1
O=C1NC(Cc2ccccc2)C(=O)N1c1ccccc1 (configuration not stated)	0.56	0.25
CC(=O)NC1=NN(C(C)=O)C2(CCCC2)S1	-0.08	-1.2
CCN(Cc1nc(-c2cccc(C)c2)no1)C(=O)c1ccc(Br)o1	.	0.55
N#CCCN(Cc1ccccc1)S(=O)(=O)c1ccc(-c2ccccn2)s1	0.96	1.8
Cc1ccc(Cn2ccsc2=NC(=O)CSc2nnc(-c3ccc4c(c3)OCO4)o2)cc1	.	0.65
CC1Cc2ccccc2N1C(=O)Nc1cccc(F)c1 (configuration not stated)	-0.3	-0.6
CCCC(=O)Nc1cccc(-c2nc3ccccc3c(=O)o2)c1	.	2.1
O=C(Nc1ccccc1-c1nc2ccccc2[nH]1)c1cc([N+](=O)[O-])ccc1Cl	-0.8	.
CC(C)=CC(=O)Nc1ccc(Cl)cc1	-0.48	-0.6
C=CCOc1ccc(/C(O)=C2\C(=O)C(=O)N(CCCN3CCOCC3)C2c2ccc(OC)c(OC)c2)c(C)c1 (configuration not stated)	-1	-0.55
COc1ccc(Br)cc1/C=C1\N=C(c2cc(C)ccc2[N+](=O)[O-])OC1=O	-0.7	.
Cc1cc(C(=O)COC(=O)c2ccc3c(=O)n4c(nc3c2)CCCCC4)c(C)n1C1CC1	.	-0.15
Cc1csc(SCC(=O)NC(=O)Cc2ccccc2)n1	.	-0.2
O=C(CSc1nc2ccccc2c(=O)n1Cc1ccco1)NCc1ccccc1	0.58	1.9
CCOC(=O)C1=C(C)N(C(=O)Oc2ccccc2)C(SC)=NC1c1ccccc1 (configuration not stated)	-0.97	1.4
O=c1c2ccccc2nc(-c2ccccc2)n1-c1cc(C(F)(F)F)cc(C(F)(F)F)c1	0.12	.
O=C(CCc1cn(Cc2ccccc2Cl)c2ccccc12)N1CCc2ccccc21	0.64	-0.65
CCOC(=O)c1c(-c2cccs2)csc1/N=C/c1c(O)n(C)c2ccccc12	-0.28	2.1
O=C(NCCc1c[nH]c2ccc(O)cc12)OCc1ccccc1CCc1ccccc1	-0.96	.
CC1CCCC(C)N1/N=C/c1ccc(O)cc1 (configuration not stated)	.	0.05
CCc1ccc(-c2nc(CS(=O)CC(=O)NCCc3ccccc3)c(C)o2)cc1 (configuration not stated)	0.32	0
CC(C(=O)O)n1nc(-c2ccccc2)c2cc(Cl)ccc21 (configuration not stated)	21	0.85
COc1cc(C(=O)Nc2ccc3[nH]c(C(C)(C)C)cc3c2)cc(OC)c1OC	-0.58	.
Cc1cccc(CC(=O)Nc2ccc3c(c2)OCCO3)c1	-0.055	0.2
CCc1ccc(C(=O)Oc2ccc(C#N)cc2)cc1	-1.4	0.55
COC(=O)c1nnn(CC(=O)Nc2ccc(C(C)C)cc2)c1C(=O)OC	-0.07	-0.8
CCn1c(C(=O)O)c(CC(=O)Nc2ccccc2OC)c2ccccc21	-0.28	1.4
CC(C(=O)NCCN1CCOCC1)(c1ccccc1)c1ccccc1	0.34	-0.4
OC1(c2ccc(F)cc2)CSC(=Nc2cccnc2)N1Cc1ccco1 (configuration not stated)	.	-1
CN(C)c1ccnc2sc3c(N(CCO)CCO)ncnc3c12	0.46	0
O=C(Nc1ccc(-c2noc(COc3ccc(Br)cc3)n2)cc1)c1cccs1	-0.075	.
CSc1nsc(SC)c1C(=O)N1CCN(S(=O)(=O)c2ccc(C)cc2)C1C(C)C (configuration not stated)	0.11	0.9
COc1ccc(C)cc1CN(C)c1ncnc2ccccc12	.	-0.55
COc1ccc(C(=O)CNc2cc(C)ccc2C)c(F)c1	0.71	-0.05
Cc1cc(C(=O)NCc2ccc(Cl)cc2)on1	-0.33	0.5
CCOC(=O)/C=C1\NC2(CCCC2)Cc2cc(OC)c(OC)cc21	.	-0.35
Cc1nc(CC(=O)N=Nc2c(O)[nH]c3ccc(F)cc23)cs1	.	-0.6
CCn1cc(C(=O)N2CC(C)CC(C)C2)c(=O)c2cc(S(=O)(=O)N3CC(C)CC(C)C3)ccc21 (configuration not stated)	-0.76	0.7
c1ccc(-n2ncc3c(SCC4CCCCO4)ncnc32)cc1 (configuration not stated)	.	1.1
CCSC1=NCCN1S(=O)(=O)c1ccccc1	-0.1	-0.55
CCc1cc(C(=O)COc2ccc(Cl)cc2)c(O)cc1O	.	-0.2
CCCc1cc(=O)c2ccc(O)cc2o1	98	.
CN1CCC(OC(=O)Cc2ccccc2)CC1	-0.28	-1.4
CC1(C)CC(Nc2ccc(Cl)cc2)CCO1 (configuration not stated)	-0.18	0.05

Other records
SMILES	Ba CapD inh	AID504770
Cc1ccccc1NC(=O)COC(=O)c1ccccc1	.	-0.5
CNC(=S)Nc1cc2oc3ccccc3c2cc1OC	.	-0.85
NC(=O)/C(=C/c1ccc(Cl)cc1)NC(=O)c1ccccc1	-0.58	-0.95
Cc1nn2c3ccccc3n(CC(=O)C(C)(C)C)c2nc1=O	8.5	.
O=C(NC1CCCCCC1)c1ccc(CS(=O)(=O)Cc2ccc(F)cc2)o1	0.025	0.2
Nc1ccc(Cl)cc1C(=O)NCc1cccs1	90	.
O=C(CSc1nnc(NC2CC2)s1)NC(=O)c1ccccc1	.	-0.1
NC(=O)C1CCN(C(=O)C2(c3cccs3)CCOCC2)CC1	.	1.4
O=C(O)C1C2C=CC(C2)C1C(=O)NCc1ccncc1 (configuration not stated)	-0.12	-0.3
CN(c1cc(C(F)(F)F)ccn1)N1C(=O)c2ccccc2C1=O	0.38	0.3
N#CC1=C(N)n2c(s/c(=C/c3ccc4c(c3)OCO4)c2=O)=C(C#N)C1c1ccc2c(c1)OCO2 (configuration not stated)	0.35	.
CCCSc1n[nH]c(=S)s1	-1.1	.
CCC(C(=O)Nc1cccc(OC)c1)n1nc(-c2ccc(OC)cc2)ccc1=O (configuration not stated)	.	0.35
Oc1ccc(C=Nc2ccc(N=Cc3ccc(O)cc3)c(Cl)c2)cc1	-2.7	-1.6
Cc1cc(C(=O)CSc2ncnc3c2cnn3-c2ccccc2)c(C)n1C1CCS(=O)(=O)C1 (configuration not stated)	.	-0.7
Cc1ccc(-c2n[nH]c(CNC(=O)NCc3ccccc3)n2)cc1	.	0.05
COC(=O)Nc1c(C)nc2n(C)c3ccccc3n12	-0.94	-0.95
CCOC(=O)c1cc(-c2ccc(S(=O)(=O)N(CC)c3cccc(C)c3)s2)on1	0.01	0
Cc1oc2ccc(NS(=O)(=O)c3cccc4cccnc34)cc2c1C(=O)OC(C)C	0.24	-0.05
C(=N\n1cnnc1)/c1ccc(OCc2ccccc2)cc1	0.26	-1.4
Cc1ccc2ncnc(Oc3ncccc3[N+](=O)[O-])c2c1	-0.21	.

This is a subset; count on the stated rates, not on these rows.
